# Screening data: PubChem BioAssay, National Center for Advancing Translational Sciences (NCATS)
# VACV Venus inh = vaccinia inhibition (Venus reporter); Vaccinia virus Venus reporter expression, fluorescence; AID 720580; 0.46% of 330,000 active; Potency, µM (doses to about 36.5 µM), for inactives: at the highest dose activity change, negative = inhibition, hits mostly inhibitors; active means well fitted inhibition curve with a large enough effect; inconclusive means small, poorly fitted or top-dose-only effect; inactive means no such curve, though single readings can be large or run the other way; tested in A549 cells; note: nearly all actives have a fitted effect of over 30% in size; inactives centre near -10
# Vaccinia mCherry = vaccinia inhibition (mCherry reporter); Potency, µM (highest dose often 36.5 µM), for inactives: at the highest dose activity change, negative = inhibition, actives largely listed as inhibitors; 0.63% of 310,000 active; Vaccinia virus mCherry reporter infection, fluorescence; about a quarter of the inactives have no number; AID 720579; active = well fitted inhibition curve with a large enough effect; inconclusive = small, poorly fitted or top-dose-only effect; inactive = no such curve, though single readings can be large or run the other way; tested in A549 cells; note: nearly all actives have a fitted effect of over 35% in size; inactives centre near -10
# * marks the source's active call; other numbers are inactive results; i = inactive; u = inconclusive; x = not tested or not shown; [ ] = another dose, or the depositor's remark. % is set by controls: 0 for no effect and ±100 for the full control effect; potency is the fitted concentration of half-maximal effect. Outcome played no part in choosing rows. About 0.86% of those tested had a hit in this group.
compound,VACV Venus inh,Vaccinia mCherry
CC(CC#CCN1CCOCC1)OCCC#N (stereo not given),-7.2%,-12.7%[1.46 µM]
CCc1nc2ccc(C(=O)Nc3ccc4c(c3)OCC(=O)N4)cn2c1N(C)Cc1nccn1C,-0.2%,6.1%
C/C=C(\C)CN1CCN(c2ccccc2F)CC1,-10.3%,-14.1%
O=C(O)c1cc(NCc2cc(O)ccc2O)ccc1O,-0.8%,-14.8%
S=c1[nH]c2ccccc2n1Cc1ccccc1,-12.3%,i
CCOC(=O)c1sc2ncn(CC(=O)Nc3ccc(OC)c(Cl)c3)c(=O)c2c1C,-0.4%,-2.4%
Cc1cc(=O)n2cn[nH]c2n1,-12.2%,i
CCOc1ccccc1-n1c(SCC(=O)Nc2nccs2)nnc1-c1ccoc1C,-5.7%,-21.7%
Cc1nc2sc(C(c3ccco3)N3CCC(Cc4ccccc4)CC3)c(O)n2n1 (stereo not given),-27.7%,u
COc1ccc(CN2CCN(C(=O)C3CCC(CNS(=O)(=O)c4ccc(C)cc4)CC3)CC2)c(OC)c1OC (stereo not given),-16.6%,i
COc1ccc(CCc2nnc(CCC(=O)N(C)Cc3ccnc4ccccc34)o2)cc1,-8.7%,-3.6%
CNC(=S)N(C)[C@H]1c2c(ccc3ccccc23)OC[C@H]1CO,-18.1%,u
CCn1cc([N+](=O)[O-])c(C(=O)N2N=C(c3ccccc3)CC2c2ccc([N+](=O)[O-])cc2)n1 (stereo not given),-19.4%,-23.0%
CCCCn1c(=S)[nH]c2cc(S(=O)(=O)N3CCCCC3)ccc21,-21.8%,-22.6%
COCCN(C(=O)CCl)C(C(=O)NC1CCCCC1)c1ccccc1C (stereo not given),u,u
O=C(Cc1ccc(Cl)c(Cl)c1)Nc1cccc2ncccc12,-16.0%,-3.4%
CCCC(=O)n1nc(-c2ccco2)nc1NCc1ccccc1Cl,-2.2%,-11.9%
COc1ccc(CCNc2ccc(C(CC(N)=O)NC(=O)Cc3cccc4ccccc34)cc2[N+](=O)[O-])cc1 (stereo not given),12.6µM*,u
COc1ccc(NC(=O)/C=C/c2cccc(F)c2)cn1,-19.5%,i
O=C(Nc1cccc(F)c1)c1ccc2ncsc2c1,-18.1%,i
COc1ccc(CCNC(=O)Cn2nnc(-c3ccc(N4CCOCC4)cc3)n2)cc1OC,-12.4%,-11.0%
N#CC(C#N)=Cc1cccn1-c1ccc(S(N)(=O)=O)cc1,-10.5%,u
O=C(CSc1nc(=O)n(CCN2CCOCC2)c2c1CCC2)Nc1ccc(OC(F)(F)F)cc1,-11.3%,u
COc1ccc(C(=O)NNC(=O)CSc2nnc(C)n2CC2CCCO2)cc1 (stereo not given),-11.7%,i
CN(C(=O)CN1C(=O)c2ccccc2S1(=O)=O)C1CCCCC1,-8.5%,i
COc1ccc(Cl)cc1NC(=O)CN(C)C(=O)c1cc2ccccc2cc1O,-21.1%,-9.8%
CC(=O)Nc1ccc(-c2ccnc3c2CC(C)(C(=O)Nc2ccc(C(C)C)cc2)O3)cc1 (stereo not given),-12.0%,9.8%
Cc1ccc(CSCC(=O)NN=C2CCN(C)CC2)cc1,1.6%,-10.4%
CC(C)C[C@H](NC(=O)c1nc[nH]c1C(=O)NCc1ccccc1)C(=O)OC(C)(C)C,-24.7%,i
O=C1N/C(=N/Nc2ccccc2)S/C1=C\c1ccccc1,-5.0%,-2.9%
O=C(CCn1c(=O)oc2ccccc21)NC1=NCCS1,-8.9%,-3.2%
COc1ccc(N2CCN(C(=O)CN(c3ccc(Br)cc3)S(C)(=O)=O)CC2)cc1,-20.1%,u
COc1ccc(NC(C)c2cc(Cl)ccc2O)cc1 (stereo not given),-24.5%,u
Cc1ccc(Cl)cc1NC(=O)CN1CCN(S(=O)(=O)N2CCOCC2)CC1,-3.9%,2.0%
CC(C)C(=O)NC(=S)Nc1ccccc1C(=O)NC1CCCCC1,-2.4%,-16.7%
CC(C)(C)C(=O)OCc1nc(-c2ccc(Cl)cc2)cs1,-12.8%,-23.7%
O=C(Nc1ccc2c(c1)C(=O)OC2)c1ccc(C(F)(F)F)cc1,-1.3%,52.1%[activator]
CC(C)NS(=O)(=O)c1ccc(NC(=O)C2CC3C=CC2C3)cc1 (stereo not given),u,x
CN1CCN(C(=O)C2=C[C@H](c3ccc4c(c3)OCO4)C[C@H](OCc3ccc(CO)cc3)O2)CC1,-10.8%,i
C=C(C)Cn1c(N)cc(=O)nc1SCC(=O)Nc1cccc(C(F)(F)F)c1,-2.8%,-13.9%
COc1ccc2c(c1)CCCC21NC(=O)N(CC(=O)NCc2cccs2)C1=O (stereo not given),-17.7%,i
COCC(=O)Nc1cc(C(=O)N2CCN(c3ccccc3)C(=O)C2)cc2nc(-c3ccccc3)n(C)c12,-5.4%,-12.9%
COc1ccc(CSCCc2n[nH]c(=S)n2-c2ccccc2)cc1C,-19.6%,u
Cc1nc2ccccc2nc(=O)c1NNc1ccccc1,-10.1%,-26.0%
Cn1c(=O)n(CC(=O)Nc2ccc(F)cc2)c2ccccc21,-6.1%,-13.1%
O=C(COC(=O)c1cc[n+]([O-])cc1)Nc1ccc(Cl)cc1Cl,-7.7%,-23.1%
Oc1csc(Cc2nc(-c3ccccc3F)cs2)n1,-6.1%,u
O=C1c2cc3ccccc3c(-c3ccccc3)c2C(=O)N1c1ccccn1,-15.7%,-12.2%
c1cncc(-c2nc(-c3cccs3)cs2)c1,-14.6%,x
Cc1cccc(NC(=O)/C(C#N)=C/c2cccc([N+](=O)[O-])c2)n1,-9.9%,-2.8%
CCCCn1c(SCC(=O)N(CC)C2CCS(=O)(=O)C2)nc2cc(S(N)(=O)=O)ccc21 (stereo not given),-9.2%,-3.1%
Cc1ccc(C2NC(=O)c3ccccc3N2)s1 (stereo not given),-20.3%,-10.6%
CC12CCC3C(CCC4CC(=O)CCC43C)C1CC(=NO)C2=O (stereo not given),-14.0%,-22.1%
CCCN(CCC)CCOc1cc(C)ccc1C(C)C,-5.8%,-3.1%
O=C(Nc1nc(-c2ccco2)c(-c2ccco2)s1)c1ccco1,-21.3%,-4.7%
CC1(C)OC(=O)C2=C(CC(CCc3ccccc3)OC2c2ccccc2)O1 (stereo not given),-10.7%,-21.7%
Nc1cc(=O)[nH]c(SCC(=O)Nc2ccc(S(=O)(=O)N3CCCCC3)cc2)n1,-15.6%,i
O=C(Nn1c(C2CC2)nc2ccccc2c1=O)c1ccco1,-7.3%,-15.0%
Cc1cccc(N2C(=O)SC(SC(=Nc3ccccc3)Nc3ccccc3)C2=O)c1 (stereo not given),-24.2%,-16.1%
CC(C)(C)CN1CCNC(=O)C1CC(=O)NCc1cccc(-n2cccn2)c1 (stereo not given),0.5%,-14.4%

# Next part
SMILES | VACV Venus inh | Vaccinia mCherry
COc1cccc(CNC(=O)CCc2c(C)nc3c(c2C)c(=O)n(C)c(=O)n3C)c1 | 12.5% | 9.6%
Cc1ccc(S(=O)(=O)NCC(c2ccco2)N2CCc3ccccc32)cc1 (stereo not given) | -13.1% | u
Cc1cccc(CC(=O)NC2CC(=O)N(c3ccccc3)C2)c1 (stereo not given) | -12.0%[7.34 µM] | -4.2%[7.34 µM]
Cc1noc(C)c1COC(=O)Cn1c(C)nc2ccccc21 | -22.6% | -24.1%
CCCc1nc2ccc(C)cn2c1Cc1ccccc1C(F)(F)F | -8.5% | 6.4%
CCCC(NC(=O)CCl)c1ccccc1 (stereo not given) | -25.2% | -18.2%
CCN(CC)c1ccc(NC(=S)NC(=O)c2cccs2)cc1 | -21.3% | -20.2%
O=C(c1ccc(F)cc1)N1CCC(O)(c2cccnc2)CC1 | -8.4% | -18.9%
CC1c2ccccc2N(S(=O)(=O)c2ccccc2)C1C (stereo not given) | -28.9% | -27.8%
CCC(CC)C(=O)NCCCCc1ccccc1 | -6.1% | -5.3%
CC(C)[C@H]1COC(NC2=N[C@@H](C(C)C)CO2)=N1 | 0.0% | 40.7%[activator]
CC(C)C(NC(=O)c1ccco1)C(=O)NCc1ccc(C(=O)O)cc1 (stereo not given) | -4.6% | i
COc1cccc(CNC(=O)COCc2cc(-c3ccc4c(c3)OCO4)on2)c1 | -18.9% | -6.3%
COc1cccc(CC2(CO)CCN(Cc3cnc(-c4cccc(C)c4)nc3)CC2)c1 | -19.6% | u
CN(C)/C=C/C(=O)c1cnc(-c2ccccn2)s1 | 4.0% | i
Cc1cc2nc(-c3cc(N4CCOCC4)ccc3[N+](=O)[O-])ccn2n1 | -4.7% | -3.2%
Cc1ccc(O)c(C2=Nc3ccccc3N=C(c3cccc([N+](=O)[O-])c3)C2)c1 | 0.0% | -9.7%
CC1=Nc2cc(C(=O)NCc3ccc(C)cc3)ccc2Sc2ccc(Cl)cc21 | -11.3% | -16.1%
Cn1cccc1C(=O)C(=O)Nc1ccc(F)c(F)c1 | -2.5% | i
COc1ccc(NS(=O)(=O)c2ccc(C)c(C(=O)NCC(c3ccco3)N3CCCCC3)c2)cc1 (stereo not given) | -17.7% | i
COc1ccc(CCNC(=O)CN(c2ccccc2)S(C)(=O)=O)cc1 | 1.2% | -6.9%
CCn1c(O)c(/C=C2\C=Nc3ccccc32)sc1=Nc1ccccc1 | -19.7% | -28.2%
CCOc1ccc2nc(N(CCN(CC)CC)C(=O)/C=C/c3cccs3)sc2c1 | -25.3% | u
O=C(CCSc1nnc(-c2ccco2)o1)N1CCOCC1 | -7.5% | -5.4%

# Retrieved one by one from the list above:
SMILES | VACV Venus inh | Vaccinia mCherry
CC1=Nc2cc(C(=O)NCc3ccc(C)cc3)ccc2Sc2ccc(Cl)cc21 | -11.3% | -16.1%
CCn1c(O)c(/C=C2\C=Nc3ccccc32)sc1=Nc1ccccc1 | -19.7% | -28.2%
O=C(CCSc1nnc(-c2ccco2)o1)N1CCOCC1 | -7.5% | -5.4%
COc1cccc(CC2(CO)CCN(Cc3cnc(-c4cccc(C)c4)nc3)CC2)c1 | -19.6% | u
Cn1cccc1C(=O)C(=O)Nc1ccc(F)c(F)c1 | -2.5% | i

# The list continues.
SMILES | VACV Venus inh | Vaccinia mCherry
CC(=O)c1c(N2CCOCC2)[nH]c(-c2ccccc2)nc1=S | -11.4% | -2.0%
CC(C)CCNC(=O)C(c1ccncc1)N(CC1CCCO1)C(=O)Cn1nnc(-c2ccc(F)cc2)n1 (stereo not given) | -14.8% | i
COC(=O)c1ccccc1NC(=S)NC(=O)c1ccc(C)cc1 | -0.3% | i
COc1ccc(OCC(=O)NCC2(N3CCN(C)CC3)CCCCC2)cc1 | -10.4% | -3.6%
COc1ccc(OC)c(CN2CCC(C(=O)N3CCN(c4ccccc4F)CC3)CC2)c1 | -15.4% | i
CC(C)C(=O)Nc1c2c(nn1-c1ccc(F)cc1)CS(=O)(=O)C2 | -26.8% | i
CCOC(=O)c1nnn(-c2nonc2N)c1C | -4.8% | i
CN(c1ccc(F)cc1)S(=O)(=O)c1ccc(Cl)c(C(=O)NCC2(N3CCOCC3)CCCCC2)c1 | -16.3% | u
CNC(=O)NC(=O)Cn1cnc2sc(-c3ccccc3)cc2c1=O | -23.0% | i
CCCCCCCCCc1conc1C(=O)/C=C/c1oc2c(c1C)CCC(C)C2 (stereo not given) | -8.0% | u
O=C(CCCCCNC(=S)Nc1ccccc1)C[N+](=O)[O-] | -12.4% | -11.9%
COCC(=O)Nc1cc(C(=O)NCCc2ccccc2)ccc1Cl | -8.7% | -9.7%

# Among those listed so far, these contain a COOH group.
SMILES | VACV Venus inh | Vaccinia mCherry
O=C(O)c1cc(NCc2cc(O)ccc2O)ccc1O | -0.8% | -14.8%
CC(C)C(NC(=O)c1ccco1)C(=O)NCc1ccc(C(=O)O)cc1 (stereo not given) | -4.6% | i

# Next part
SMILES | VACV Venus inh | Vaccinia mCherry
CN(C)NC(=S)Nc1cccc(C(F)(F)F)c1 | -11.3% | -3.5%
COc1ccccc1N1CCN(C(=O)Cn2ncc3ccsc3c2=O)CC1 | 3.1% | -14.1%
Cc1ccc(-c2nnn(CC(=O)N(CCCO)C(C(=O)NC3CCCC3)c3ccc(Cl)cc3)n2)o1 (stereo not given) | 0.2% | -8.5%
COc1ccc2sc(C)[n+](C)c2c1 | -9.8% | -7.5%
CSCC[C@@H](C(=O)O)N1Cc2ccccc2C1=O | -7.1% | 7.2%
Cc1nn(S(=O)(=O)c2ccc(C(C)(C)C)cc2)c(C)c1S(=O)(=O)N1CCC(C)CC1 | -10.2% | -14.3%
CC(C)OC(=O)n1c(=S)oc2ccccc21 | -14.7% | -4.2%
CC(C)CC(NC(=O)CC12CC3CC(CC(C3)C1)C2)C(=O)NC1=NCCS1 (stereo not given) | -1.6% | 1.3%
Cc1ccc(-c2nc3ncccc3o2)cc1NC(=O)c1cccc(OCC(C)C)c1 | u | u
O=C1S/C(=C/c2ccccc2)C(=O)N1CC(O)Cn1c2ccccc2c2ccccc21 (stereo not given) | -26.3% | -11.8%
Cc1cc(N2CCCCC2)n2ncc(-c3ccccc3)c2n1 | -19.0% | -7.7%
O=C(CSc1ccccn1)Nc1ccc(Cl)c([N+](=O)[O-])c1 | -18.9% | -9.3%
O=C(NCc1ccccc1)c1ccc(Cl)cc1[N+](=O)[O-] | 1.8% | -5.1%
CC(=O)Nc1cccc(-c2cc(NC(C)=O)c3ncc(-c4cccc(C(F)(F)F)c4)n3c2)c1 | u | u
